TRPML1 agonist – human mucolipin-1 channel agonism; Q9GZU1; TRPML1-expressing cells, Ca2+ dye fluorescence, FDSS; host cell line not named in the record; reference of the full effect not given here; activation, % (concentration not given with the values); 410,000 tested, 0.12% active; in the data active = activation above about 50%; inconclusive = about 30% to 50%; inactive = below about 30%; further: 0% is about no effect; the text of the record puts the active cut at 80%
Target sequence (Q9GZU1 whole entry, looked up): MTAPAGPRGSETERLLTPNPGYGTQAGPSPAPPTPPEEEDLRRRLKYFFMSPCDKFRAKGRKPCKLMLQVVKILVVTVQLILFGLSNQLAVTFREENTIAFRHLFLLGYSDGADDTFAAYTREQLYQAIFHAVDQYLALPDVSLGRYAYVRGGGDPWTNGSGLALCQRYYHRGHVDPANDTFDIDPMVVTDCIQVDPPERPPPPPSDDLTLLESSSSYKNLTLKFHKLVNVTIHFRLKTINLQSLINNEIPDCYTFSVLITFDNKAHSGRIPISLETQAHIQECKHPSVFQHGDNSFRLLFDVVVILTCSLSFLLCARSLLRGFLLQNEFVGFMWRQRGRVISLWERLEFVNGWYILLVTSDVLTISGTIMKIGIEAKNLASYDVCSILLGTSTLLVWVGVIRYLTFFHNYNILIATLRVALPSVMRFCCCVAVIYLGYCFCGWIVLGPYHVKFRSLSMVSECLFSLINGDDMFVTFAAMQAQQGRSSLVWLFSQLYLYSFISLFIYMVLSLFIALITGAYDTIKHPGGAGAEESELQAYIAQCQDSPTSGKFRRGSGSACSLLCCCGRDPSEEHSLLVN
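TRPML1-DL cells, Tet-induced overnight (~16 h, 37 degrees C), loaded 45-90 min at room temperature with Ca8 no-wash calcium dye plus quencher. FDSS fluorescence: 10 s baseline, compound pin-transfer, 110 s agonist read, then EC80 54-4 (4uM final) and 110 s antagonist read.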
PINK1 modulator – changes PINK1 expression. PINK1 immunofluorescence, high-content cytometry, 24 h. Potency, µM (highest dose often 76.6 µM), inactives show at the highest dose activation (PINK1 increase), hits mostly activators. 410,000 tested, 0.2% active. AID 624263; active = well fitted activation curve with a large enough effect; inconclusive = small, poorly fitted or top-dose-only effect; inactive = flat fitted curve, though single readings scatter; cell line not stated here;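 further: potency means the concentration at half of the fitted maximal effect; % of control where 0% means no effect; nearly all actives have a fitted effect of over 65% in size; a mitochondrial uncoupler was the plate control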
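Measures PINK1 amount and localization on or inside mitochondria by immunofluorescence. Stable cells get compounds at 5 concentrations for 24 hours before fixation and staining; CCCP controls included.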
D2 ag – activates the human D2 dopamine receptor; DiscoveRx PathHunter D2 beta-arrestin, luminescence, 90 min; 100% = 57 uM dopamine signal; AID 624465; activation, % (test concentration not listed); 360,000 tested, 0.084% active; P14416; in the data active = activation above about 40%; inconclusive = about 15% to 40%; inactive = below about 15%; further: compound concentration not given in the record; the text of the record calls up to 30% inactive
Target sequence (P14416 whole entry, looked up): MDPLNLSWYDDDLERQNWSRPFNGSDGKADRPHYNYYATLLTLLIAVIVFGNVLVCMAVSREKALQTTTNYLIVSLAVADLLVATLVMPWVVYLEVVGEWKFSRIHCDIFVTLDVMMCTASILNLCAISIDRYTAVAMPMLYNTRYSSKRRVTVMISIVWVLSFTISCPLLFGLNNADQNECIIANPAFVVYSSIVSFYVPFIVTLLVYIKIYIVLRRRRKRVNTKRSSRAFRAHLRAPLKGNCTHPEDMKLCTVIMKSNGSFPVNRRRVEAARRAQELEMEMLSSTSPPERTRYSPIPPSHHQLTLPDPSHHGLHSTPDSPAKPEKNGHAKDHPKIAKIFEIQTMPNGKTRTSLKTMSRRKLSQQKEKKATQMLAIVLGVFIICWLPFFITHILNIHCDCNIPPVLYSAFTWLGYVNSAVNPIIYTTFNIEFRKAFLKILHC
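Agonist mode: compounds alone added to overnight-plated D2 PathHunter cells for 90 min at 37 C, with 57 uM final dopamine (EC100) defining full response. Beta-arrestin recruitment detected by chemiluminescent reagent, read after 1 h at ambient temperature.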
Six1-Eya2 blk – blocks human Six1 binding to Eya2. Q15475+O00167. AlphaScreen GST-Six1/His-Eya2 binding, biochemical; hits give low values; control for the full effect not named in the record. activity change, % (test concentration not listed). 360,000 tested, 0.56% active; in the data active = activity change below about -65%; inconclusive = about -30% to -65%; inactive = above about -30%; further: on the % scale 0 is the no-effect control and ±100 the full control effect; compound concentration not given in the record
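Homogeneous AlphaScreen proximity assay pairing GST-Six1 with His-tagged Eya2 (added as 5X mix: 250 nM and 500 nM) in 50 mM Tris pH 8.0, 300 mM NaCl, 1 mM TCEP. Glutathione donor and nickel acceptor beads; 1 h, 37 °C, dark.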
D2 potentiator – positive allosteric modulators of human D2 dopamine receptor | DiscoveRx D2 beta-arrestin cells, luminescence, 90 min; 100% = 57 uM dopamine signal | 360,000 tested, 0.23% active | potentiation, % (concentration not given with the values) | P14416; active = potentiation of 50% or more; inconclusive = 30% to 50%; inactive = 30% or less;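 further: compound concentration not given in the record; tested on top of an EC20 dose of dopamine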
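PathHunter D2 cells, attached overnight at 37 deg C, received compound in DMSO plus dopamine at EC20 (50 nM final) for 90 min at 37 deg C. Beta-arrestin recruitment was read as luminescence after 1 h with detection reagent at ambient temperature.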
TRPML1 blocker – human mucolipin-1 channel inhibition; Q9GZU1; TRPML1-inducible cells, Ca2+ dye fluorescence, FDSS; hits give low values; inhibition of EC80 agonist-evoked calcium signal; activity change, negative = inhibition, % (no concentration beside the values); 390,000 tested, 0.02% active; in the data active means activity change below about -50%; inconclusive means about -30% to -50%; inactive means above about -30%;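 further: stimulus is agonist 54-4 at its EC80 concentration; on the % scale 0 is the no-effect control and ±100 the full control effect; compound concentration not given in the record; the text of the record puts the active cut at -80%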
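Calcium fluorescence in TRPML1-DL cells induced overnight with Tet: a 110 s read after compound pin addition, then a 110 s antagonist read after challenge with 54-4 at 4 uM final (EC80).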
* marks the source's active call; other numbers are inactive results; ? = inconclusive; . = no result given; [ ] = dose if it differs, or a comment.

SMILES,TRPML1 agonist,PINK1 modulator,D2 ag,Six1-Eya2 blk,D2 potentiator,TRPML1 blocker
COc1cc(C(=O)OCC(=O)Nc2ccc(OC(F)F)cc2)cc(OC)c1OC,0.1,-0.6%,-0.8,6,2,-12
Cn1ccsc1=NC(=O)c1ccc(Cl)c([N+](=O)[O-])c1,-0.2,0.9%,-0.1,-1,2,14
CC1CCC(NC(=O)CCNC(=O)c2ccccc2)CC1 (stereo unspecified),-0.4,0.6%,-5.9,-5,-4,?
CC(=O)NC12CC3CC(C1)CC(C(=O)N1CCN(S(=O)(=O)c4cccc([N+](=O)[O-])c4)CC1)(C3)C2,-0.7,1.6%,1.6,-4,2,22
CCC(=O)N1CCc2cc(Br)cc(S(=O)(=O)CCC(=O)NCc3ccco3)c21,0.4,-1.1%,-1.4,-1,15,-5
Nc1nc(SCC(=O)c2c(N)n(Cc3ccccc3)c(=O)[nH]c2=O)n[nH]1,0.0,-0.3%,-4.0,-15,-4,-8
Cc1cc(/C=N/n2cnnc2)c(C)n1-c1ccc2c(c1)OCO2,-0.2,-6.9%[38.3 µM],-2.4,-2,1,-1
CC1=Nn2c(nnc2-c2n[nH]c3c2CCC3)SC1,-0.6,0.7%,-4.3,-15,-1,-6
COc1ccc(C(=O)C2CCCN(Cc3sc(N4CCCC4)nc3Cl)C2)c(OC)c1 (stereo unspecified),2.1,1.8%,0.5,-23,7,2
CCn1c(SCC(=O)OC)nnc1-c1ccc(C)cc1,-0.5,1.3%,-7.0,-1,-10,-9
COc1ccc(/C(C)=N\NC(=O)c2ccc(-c3ccccc3)cc2)c(F)c1,1.1,6.6%,1.5,2,2,9
C#Cc1ccc(CN2CCN(Cc3ccsc3)C(CCO)C2)cc1 (stereo unspecified),-0.5,-0.5%,0.0,-6,-19,6
COc1ccccc1C=C(C(=O)c1ccccc1)c1ccccc1,2.9,2.0%,-4.5,30,-6,.
CCCOc1ccc(C2=NNC(c3cccs3)=Nc3ccc(OC)cc32)cc1,-0.5,-0.9%,-2.8,-25,-6,4
C=CCCC(=O)N1C[C@H]2CON(C)[C@H]2C[C@H]1c1ccc(N2CCCCC2)cc1,-0.8,3.8%,-1.5,-6,-6,.
COc1ccc(C(=O)N2c3ccccc3C(C)(c3ccc(Cl)cc3)CC2(C)C)cc1 (stereo unspecified),0.4,1.7%,.,.,.,65
CCNC(=O)NC(=O)C(C)OC(=O)[C@H](C)NS(=O)(=O)c1c(C)c(C)cc(C)c1C (stereo partly specified),0.8,0.9%,-3.9,0,-11,13
COc1ccc(NC(=O)Cn2nnc(C(=O)NCc3ccccc3OC)c2N)cc1Cl,-0.6,8.7%[38.3 µM],-0.8,-2,-7,13
CCCCNC(=O)C1CC(c2cccc([N+](=O)[O-])c2)=NO1 (stereo unspecified),-0.4,0.9%,-0.5,21,-8,-16
C=CCNC(=S)/C(=C(\[O-])c1ccc(Cl)cc1)[n+]1ccccc1,0.0,2.8%,-5.5,-6,-9,24
COCc1cc(C)nc2sc(C(=O)N3CCCC3)c(N)c12,-0.3,3.0%[38.3 µM],-1.4,-7,-11,-15
Cc1ccc(F)c(S(=O)(=O)NC(=O)C2(C)CCN2C(=O)c2cccc3ccccc23)c1 (stereo unspecified),-0.9,0.5%,?,6,62*,.
Cc1ccc(CNC(=O)C2CC(c3cccc(F)c3)=NO2)cc1 (stereo unspecified),-0.7,5.5%,0.3,-1,-1,-13
Cc1ccc(NC(=O)CC2SC3=NCCN3C2=O)cc1 (stereo unspecified),-0.9,-2.3%,-0.7,3,-9,6
Cc1ccc(-c2sc(-c3cccnc3)nc2CC(=O)O)cc1,-0.7,5.3%,-4.6,1,0,-2

Arranged by number of heavy atoms (descending): 3 of the compounds above
SMILES,TRPML1 agonist,PINK1 modulator,D2 ag,Six1-Eya2 blk,D2 potentiator,TRPML1 blocker
COc1cc(C(=O)OCC(=O)Nc2ccc(OC(F)F)cc2)cc(OC)c1OC,0.1,-0.6%,-0.8,6,2,-12
CCC(=O)N1CCc2cc(Br)cc(S(=O)(=O)CCC(=O)NCc3ccco3)c21,0.4,-1.1%,-1.4,-1,15,-5
Cn1ccsc1=NC(=O)c1ccc(Cl)c([N+](=O)[O-])c1,-0.2,0.9%,-0.1,-1,2,14

(listing goes on)
SMILES,TRPML1 agonist,PINK1 modulator,D2 ag,Six1-Eya2 blk,D2 potentiator,TRPML1 blocker
CCCn1c(N)c(C(=O)COC(=O)c2c(C)noc2C)c(=O)n(C)c1=O,-1.0,0.1%,-0.1,-17,-11,20
O=C(CC(c1ccccc1)c1ccccc1)Nc1nn[nH]n1,-1.3,-1.1%,-2.8,-7,-3,4
CCOc1ccc(CSC(=N)N)cc1,0.9,-1.3%,-4.7,1,-23,5
Cc1ccc(S(=O)(=O)N2C[C@H]3n4c(=O)ccc(=O)n4C[C@H](OC(=O)NCc4ccccc4)[C@@]3(O)C2)cc1,0.1,9.1%,-8.4,2,0,5
Cc1cc(C)c2c(=O)n(CC(=O)N3CCC(N4CCCCC4)CC3)sc2n1,-0.1,8.0%,-5.6,-3,-5,-14
COc1ccc2c(c1)C1=NN(/C(C)=C\C(C)=O)C(c3ccccc3)C1CC2 (stereo unspecified),1.3,-0.2%[38.3 µM],5.8,-4,?,8
Cc1cc(NC(=O)COC(=O)[C@H](C)NC(=O)c2ccccc2)no1,-0.6,1.7%,-2.4,4,-15,-7
O=C(N/N=C/C(Br)=C/c1ccccc1)c1ccc([N+](=O)[O-])cc1,0.2,2.4%,4.2,-4,-20,1
O=C(NCc1ccccc1)c1ccc(CSc2nc3cccnc3n2Cc2ccccc2F)cc1,2.0,-1.5%,.,.,.,-7
CCc1sc(C(=O)N2CCc3cc(OC)c(OC)cc3C2CC(=O)O)cc1C (stereo unspecified),-1.1,-0.6%,-0.8,-4,1,15
Cc1cc(C)c2[nH]c(O)c(N=Nc3ccc(C(=O)O)cc3)c2c1,0.5,1.7%,2.7,-3,-4,24
S=c1nc[nH]c2c1ncn2-c1ccccc1,-0.7,-2.0%,5.8,-3,2,-7
COc1ccc(CCCc2nnc(SCC(=O)Nc3cc(C)c(C)cc3Br)o2)cc1,-0.5,-3.2%[38.3 µM],-1.1,2,2,12
COc1ccc(/C=N/NS(=O)(=O)c2ccccc2)cc1OS(=O)(=O)c1ccc(C)cc1,0.2,11%,-5.5,-8,-22,18
CCCCNC(=O)N(O)C1N(CCCC)C(=O)N(CC(=O)OC)C1(C)C (stereo unspecified),-0.3,2.1%[38.3 µM],-0.1,7,-2,-9
CCCn1c(N)c(Sc2ccccc2)c(=O)n(CCC)c1=O,0.8,6.2%[38.3 µM],-0.6,3,1,42
CN(C(=O)CSc1ccc(S(=O)(=O)N2CCCCC2)cn1)c1ccccc1,0.2,-1.3%,0.6,0,0,-6
CCOC(=O)N/N=C\c1ccc(-c2cccc(C(F)(F)F)c2)o1,3.2,5.6%,-1.0,0,-13,-12
CCN(CC)S(=O)(=O)c1ccc(C)c(NC(=O)CSc2nc3ccccc3[nH]2)c1,5.2,-0.3%,-1.0,-19,-21,45
CC(=O)NC1(C(F)(F)F)C(=O)Nc2c1c(=O)n(C)c(=O)n2C (stereo unspecified),1.4,0.4%,-1.2,5,-17,-3
Cc1ccc(NC(=S)N(CCCN(C)C)Cc2cc3cc4c(cc3[nH]c2=O)OCO4)c(C)c1,-0.7,1.7%,-2.5,-1,-2,10
CCOc1cc(S(=O)(=O)NCCCN2CCOCC2)ccc1F,-0.4,1.8%,-0.5,-1,20,-10
CC(C)(C)c1ccccc1OCCOCCNCc1ccccc1,-0.5,-1.3%,-7.1,6,-22,-4
COC(=O)c1ccc(C(=O)OC)c(NC(=O)COC(=O)CCOc2ccc(C)cc2)c1,-0.2,2.9%,-2.9,16,-21,-17
COc1ccc(N(C)C(=O)CCS(=O)(=O)c2cccc3nonc23)cc1,-0.6,-0.6%,0.2,-1,6,-14

Going on with the list.
SMILES,TRPML1 agonist,PINK1 modulator,D2 ag,Six1-Eya2 blk,D2 potentiator,TRPML1 blocker
CCN(CC)C(CNS(=O)(=O)c1ccc(Cl)cc1)c1ccccc1 (stereo unspecified),-1.2,-1.4%,-9.5,-6,-8,42
O=C(NCCCN1CCOCC1)c1ccc2c(=O)n(Cc3ccc(Cl)cc3)c(=S)[nH]c2c1,0.2,4.7%,-1.8,0,-9,17
O=C(NCCCN1CCOCC1)c1cc2c(s1)CCCC2,-0.6,-2.1%,0.8,-6,0,23
COc1ccc(C(=O)c2c(N)c(C(=O)Nc3cccc(OC)c3)c3ccccn23)cc1,1.0,1.4%,.,.,.,-10
COC(=O)c1scc(C)c1N/N=C(\C)c1ccc(F)cc1,0.1,3.5%,-3.4,3,-13,-5
Cc1ccc(N2CC(NS(=O)(=O)c3cccs3)CC2=O)cc1C (stereo unspecified),-0.4,-1.9%,-2.3,-1,-10,0
CCOc1cccc(/C(O)=C2/C(=O)C(=O)N(CCN3CCOCC3)C2c2cccnc2)c1 (stereo unspecified),1.8,-1.1%,-2.3,4,-9,-7
CCCOc1cccc(C(=O)NCCCNC(=O)c2ccccn2)c1,-0.4,2.7%,-1.4,1,10,2

Some of the entries above in a different format.
> CCN(CC)C(CNS(=O)(=O)c1ccc(Cl)cc1)c1ccccc1 (stereo unspecified)
  TRPML1 agonist = -1.2 | PINK1 modulator = -1.4% | D2 ag = -9.5 | Six1-Eya2 blk = -6 | D2 potentiator = -8 | TRPML1 blocker = 42

> O=C(NCCCN1CCOCC1)c1ccc2c(=O)n(Cc3ccc(Cl)cc3)c(=S)[nH]c2c1
  TRPML1 agonist = 0.2 | PINK1 modulator = 4.7% | D2 ag = -1.8 | Six1-Eya2 blk = 0 | D2 potentiator = -9 | TRPML1 blocker = 17

> O=C(NCCCN1CCOCC1)c1cc2c(s1)CCCC2
  TRPML1 agonist = -0.6 | PINK1 modulator = -2.1% | D2 ag = 0.8 | Six1-Eya2 blk = -6 | D2 potentiator = 0 | TRPML1 blocker = 23

> COc1ccc(C(=O)c2c(N)c(C(=O)Nc3cccc(OC)c3)c3ccccn23)cc1
  TRPML1 agonist = 1.0 | PINK1 modulator = 1.4% | D2 ag = . | Six1-Eya2 blk = . | D2 potentiator = . | TRPML1 blocker = -10

Screening data from PubChem.
